# Ecoli rRNA inh: inhibitors of bacterial rRNA selective over humanized ribosomes; E. coli WT GFP vs humanized-ribosome RFP mutants, fluorescence, 24 h; active compounds read low; DMSO median 0, no signal -100; GFP signal change (wild-type ribosome), % (no concentration beside the values); 350,000 compounds, 1.6% hits;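 active = significant combined selectivity score with lowered wild-type GFP, culture density cut under 30%, mutant RFP and density less affected; inactive = any of these conditions unmet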; also: one replicate is shown; some compounds called inactive have numbers as strong as hits
# UCH37 DUB inh: inhibitors of human deubiquitinating enzyme UCH37; purified proteasome/UCH37, Ub-AMC cleavage fluorescence; Q9Y5K5; 330,000 compounds, 0.33% hits; AID 588478; inhibition, % (concentration not given with the values);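 active = mean of two replicates above 20%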;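 also: 0% = compound-free wells with enzyme and 100% = wells lacking proteasome; stock transfer was 100 nL into about 20 µL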
# Target sequence (Q9Y5K5 whole entry, looked up): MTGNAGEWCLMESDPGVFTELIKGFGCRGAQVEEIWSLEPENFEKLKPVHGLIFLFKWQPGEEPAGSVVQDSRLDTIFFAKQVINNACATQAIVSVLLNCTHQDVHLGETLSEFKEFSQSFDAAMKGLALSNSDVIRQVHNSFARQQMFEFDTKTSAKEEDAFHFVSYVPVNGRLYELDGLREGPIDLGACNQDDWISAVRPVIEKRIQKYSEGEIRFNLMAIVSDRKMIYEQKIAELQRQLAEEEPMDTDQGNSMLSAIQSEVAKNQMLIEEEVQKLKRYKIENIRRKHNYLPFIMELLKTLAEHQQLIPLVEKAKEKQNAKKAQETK
#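 assay system = human UCH37 enzyme supplied as purified proteasome complex | amount = proteasome at 0.15 nM in the dispensed enzyme solution | schedule = 30 min compound-proteasome preincubation then 25 min substrate reaction, room temperature | measured by = fluorescence, ex 355 nm, em 460 nm | benchmarks = no-proteasome wells (full inhibition) and compound-free wells (no inhibition)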
# FGF22 binding: FGF22 (human) thermal shift binding. recombinant FGF22 thermal shift, SYPRO orange fluorescence; percent of sucrose octasulfate shift, DMSO zero. calls only at 9.99 µM. 340,000 compounds, 1.5% hits;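 active = melting point raised past a set limit in the mean and every replicate; three in four hits are not shown here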
# Target sequence (Q9HCT0 whole entry, looked up): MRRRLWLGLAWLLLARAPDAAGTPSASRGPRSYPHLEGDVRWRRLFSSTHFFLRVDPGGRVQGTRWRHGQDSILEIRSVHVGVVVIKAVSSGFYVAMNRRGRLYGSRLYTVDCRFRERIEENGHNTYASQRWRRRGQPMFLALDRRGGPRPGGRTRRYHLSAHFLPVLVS
# MLL AF4-AF9 inh: blocks AF4 peptide binding to human AF9. P42568. AlphaScreen, biotin-AF4 peptide binding to FLAG-AF9. inhibition, % at 10 µM. 350,000 compounds, 0.47% hits;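 active = every replicate reaching a set inhibition limit, whatever the replicate mean, cut at about 25% in these data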;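 also: 0% = plate neutral control median and 100% = total signal loss; the record names both 10 and 1 µM as test concentration; the first replicate is given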
# Target sequence (P42568 whole entry, looked up): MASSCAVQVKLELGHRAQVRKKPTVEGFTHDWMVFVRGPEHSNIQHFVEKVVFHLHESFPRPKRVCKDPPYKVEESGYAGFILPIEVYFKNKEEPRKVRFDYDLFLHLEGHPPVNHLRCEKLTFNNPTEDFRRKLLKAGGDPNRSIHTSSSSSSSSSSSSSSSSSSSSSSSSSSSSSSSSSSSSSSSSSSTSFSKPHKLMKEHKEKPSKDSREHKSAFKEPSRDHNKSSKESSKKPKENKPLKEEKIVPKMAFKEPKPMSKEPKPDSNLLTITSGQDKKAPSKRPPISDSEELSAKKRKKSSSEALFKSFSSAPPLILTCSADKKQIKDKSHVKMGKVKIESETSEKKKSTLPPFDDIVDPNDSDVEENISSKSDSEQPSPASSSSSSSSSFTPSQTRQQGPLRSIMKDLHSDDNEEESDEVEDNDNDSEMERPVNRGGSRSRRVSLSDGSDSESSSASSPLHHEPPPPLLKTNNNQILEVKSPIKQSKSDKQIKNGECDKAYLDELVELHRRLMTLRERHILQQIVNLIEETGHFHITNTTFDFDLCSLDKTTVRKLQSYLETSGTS
# Beta apoptosis: blocks beta cell apoptosis; 300,000 compounds, 0.8% hits; INS-1E cytokine-induced death, ATP luminescence, 48 h; percent of positive-control rescue, neutral wells zero; protection from apoptosis, % (concentration not given with the values); AID 435005;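 active = all replicates at 75% or more, or half of them and the mean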;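 also: 0% = cytokine-treated negative control wells and 100% = positive control rescue; higher means more ATP so stronger rescue from cytokine killing; wells of about 40 µL received 100 nL stock; the first replicate is given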
# A1 inh: inhibitors of the anti-apoptotic protein A1, read as caspase activation; MEF A1-2A-BIM cells, Caspase-Glo 3/7 luminescence, 3 h; percent of clofoctol response, vehicle zero; caspase activation, % (concentration not given with the values); 330,000 compounds, 0.066% hits; AID 2462;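 active = over half of replicate activation scores above 10%, or exactly half above 10 with the replicate mean above 10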;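 also: wells of about 30 µL received 50 nL stock; many hits fall short of the cut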
# T cruzi inh: blocks replication of Trypanosoma cruzi. inhibition, % (concentration not given with the values). AID 1885. T. cruzi beta-gal in NIH3T3, luminescence, 90 h. 300,000 compounds, 1.4% hits;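 active = mean inhibition across valid replicates above about 55%, limit read from the data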;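 also: signal also drops with host cell toxicity which is not excluded here; 0% = plate median of DMSO wells and 100% = zero luminescence signal; higher percent means less beta-gal luminescence so fewer parasites; stock transfer was 50 nL into about 50 µL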
# E coli growth: E. coli growth inhibition | Escherichia coli growth, OD600, 23 h; active compounds read low | OD600 absorbance (concentration not given with the values) | 330,000 compounds, 0.21% hits;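 active = OD600 absorbance below the run mean of sample wells minus 3.6 SD, in any replicate, cut at about 0.56 in these data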;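 also: stock transfer was 300 nL into about 60 µL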
# Ecoli rRNA inh OD600: further read-out of Ecoli rRNA inh, marked with its call; OD600 change, %; measured here: OD600 growth;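 optical density of the mix in the first replicate; 0 = DMSO median and -100 = no signal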
# Ecoli rRNA inh RFP: second read-out of Ecoli rRNA inh, no call of its own (marks repeat the call); RFP signal change, %; measured here: RFP humanized mutant strains;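 first replicate; 0 = DMSO median and -100 = no signal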
# * marks the source's active call; other numbers are inactive results; i = inactive; x = not tested or not shown. These rows are one share of the data; rates above refer to the full screens.
Structure,Ecoli rRNA inh,Ecoli rRNA inh OD600,Ecoli rRNA inh RFP,UCH37 DUB inh,FGF22 binding,MLL AF4-AF9 inh,Beta apoptosis,A1 inh,T cruzi inh,E coli growth
O=C(Nc1cccnc1)c1ccc(Cl)c(S(=O)(=O)N2CCCCCC2)c1,-10,-14,3.2,1.3,x,x,-3,0.7,-4,0.67
Cc1ccc(CCC(=O)Nc2cc(Cl)ccc2Cl)o1,5,11,-0.4,4.9,i,0.4,-5,1.1,-5,0.71
O=C(N/N=C/c1ccccc1Cl)c1ccncc1,6,9,2.2,x,i,-1.9,-1,-0.4,-6,x
O=C(CCOc1ccccc1F)N1CCN(c2ccccc2O)CC1,x,x,x,0.7,x,0.1,-6,0.5,-1,0.64
O=C(CNC(=O)N1CC(=O)Nc2ccccc21)Nc1ccccc1F,2,1,-1.7,4.2,i,1.0,x,-1.8,-21,0.69
Cn1c(=O)c([N+](=O)[O-])c(-n2cnc3ccccc32)c2ccccc21,-24,-29,-2.6,9.2,i,2.4,8,0.8,-8,0.68
COc1ccc(CCn2c(=N)c(C(=O)NCCN3CCOCC3)cc3c(=O)n4ccccc4nc32)cc1OC,2,8,-1.3,4.8,i,-4.8,-1,-0.6,12,0.64
Brc1ccc(COn2ccnc2)cc1,5,-2,-4.3,1.1,i,0.2,x,x,52,0.65
C/C(=N\OC(=O)C1CC1)C1CC1c1ccc(F)cc1 (centres undefined),-19,-17,-0.2,x,i,0.5,x,0.0,-10,x
CC(C)(C)c1csc(NC(=O)c2ccncc2)n1,-27,-23,0.3,1.2,x,2.2,10,0.3,-27,0.69
Cc1ccc(Cn2c(CCNc3nc(-c4ccc(Cl)c([N+](=O)[O-])c4)cs3)nc3cc(Cl)c(Cl)cc32)cc1,2,-1,1.8,3.9,i,-2.0,3,0.1,-25,0.77
CC(CCc1ccccc1)NC(=O)c1ccccc1 (centres undefined),x,x,x,-2.1,x,x,-3,0.5,7,0.73
COc1cc(C2NC(=O)NC(C)=C2C(=O)OC2CCCC(C)C2)cc(Br)c1O (centres undefined),-20,-28,-2.3,1.1,i,4.6,-2,0.4,8,0.7
CC(=O)c1c(COC(=O)c2ccncc2)nc2ccccc2[n+]1[O-],x,x,x,5.7,x,x,-1,0.5,-8,0.68
CCOc1cc(NC(=O)c2ccccc2[N+](=O)[O-])c(OCC)cc1NC(=O)CC(C)C,x,x,x,6.5,x,x,x,-1.1,14,0.72
Cc1ccc2cc(CCNC(=O)c3ccc(S(=O)(=O)N4CCOCC4)cc3)c(=O)[nH]c2c1C,-9,-13,3.3,-1.3,i,-1.3,-3,-0.4,5,0.73
Cn1nc(-c2ccc(C(=O)O)cc2)c2ccccc2c1=O,x,x,x,5.4,x,x,4,-0.4,-13,0.7
CN(CC(=O)Nc1ccc(F)cc1)C(=O)COc1ccc(C(=O)c2ccccc2)cc1,-25,-26,0.3,2.1,i,-3.0,5,0.0,-20,0.63
CCc1cccc(NC(=O)CCc2c(C)nn(-c3ccc(N4CCCCC4)nn3)c2C)c1,-32*,-26*,-7.2*,3.0,i,-0.1,0,-2.2,1,0.7
CC(C)OC(=O)CSc1nnc(CNc2ccc(Cl)cc2)n1C,1,1,-0.1,1.7,i,-0.7,-8,-1.1,-9,0.76
Cc1ccccc1CN1CCCOCCS1(=O)=O,18,20,-2.2,0.8,i,-4.7,-5,0.8,-10,0.67
C/C(=N/NC(=O)c1cc2ccccc2cc1O)c1ccco1,x,x,x,x,i,-0.6,1,0.0,-3,x
COc1ccc(-n2c(SC)nc(O)c(Cc3ccccc3)c2=O)cc1,x,x,x,0.0,x,x,-3,-0.6,-6,0.71
COc1ccc2cnn(-c3ccc(C)cc3)c(=O)c2c1OC,x,x,x,4.6,x,x,-5,0.1,-4,0.7
Cc1cc(S(=O)(=O)N2CCCC(N(C)CCc3ccccn3)C2)c(C)cc1Cl (centres undefined),-8,-14,3.7,4.6,i,12,x,x,52,0.69
CCC(=O)/C=C1/Sc2ccccc2N1CC,x,x,x,22*,x,x,7,-0.3,9,0.75
Cc1cccc(N(Cc2ccccc2)C(=O)CN2C(=O)NC3(CCCCC3C)C2=O)c1 (centres undefined),-1,-39,0.9,1.6,i,5.7,-5,0.6,x,0.69
CC1(C)Cc2c(sc3nc(SCC(=O)O)[nH]c(=O)c23)CO1,x,x,x,-0.5,x,x,-2,-0.3,-9,0.66
Cc1ccc(Nc2c(-c3ccccc3)nc3cnccn23)cc1,-21,-27,-2.5,-70,i,14,-2,-1.2,-10,0.7
Cn1c(=O)c2c(nc(NCCCO)n2Cc2cccc(Br)c2)n(C)c1=O,x,x,x,1.3,x,x,x,0.3,-18,0.66
O=C(COC(=O)CN1CCSC1=O)Nc1ccc(F)cc1Cl,15,4,4.5,2.4,i,-1.7,-3,2.2,x,0.72
O=C(CCC1CCCCC1)NCCS(=O)(=O)N1CCN(c2ccccc2F)CC1,12,8,0.6,2.7,x,-2.1,x,-0.1,6,0.66
N#Cc1ccc(CSc2nnc(COc3ccccc3)n2-c2ccccc2)cc1,x,x,x,5.0,x,x,4,0.8,28,0.72
Cc1cccc(-c2cnn(-c3cccc([N+](=O)[O-])c3)c2N)c1,-3,0,-2.8,1.3,i,11,-2,-0.2,0,0.68
COc1ccc(NC(=O)CCCSc2ccccc2)cc1,21,8,-0.5,2.2,i,-0.2,-1,0.5,-9,0.68
Cc1ccccc1OCC(=O)Nc1ccc(Cc2ccncc2)cc1,-38,-63,-5.5,1.5,i,-6.9,0,0.4,-6,0.63
COc1ccc(CCNC(=O)COc2ncnc3cc([N+](=O)[O-])ccc23)cc1,12,5,1.6,3.5,i,-1.9,-1,0.2,30,0.7
Cc1cc(NC(=O)COc2coc(CN3CCN(c4ccccc4F)CC3)cc2=O)no1,1,4,-2.2,-0.6,i,-17,x,0.6,2,0.62
CC1=NOC(=O)/C1=C/c1ccc2c(c1)OCO2,9,11,1.1,4.5,i,-0.5,-13,-0.1,1,0.7
O=C(O)c1ccc(CNCc2c(Cl)cccc2Cl)cc1,x,x,x,2.1,x,x,0,-1.1,-5,0.64
Cc1cc2c(cc1C)C(c1cccc([N+](=O)[O-])c1)CC(=O)N2 (centres undefined),18,-2,3.5,3.8,i,1.0,3,0.3,-11,0.69
Cc1nc2scc(C)n2c(=O)c1S(=O)(=O)Nc1ccc(N2CCOCC2)c(Cl)c1,5,6,-0.1,9.4,i,-0.4,40,-1.0,-49,0.68
O=C(O)CCCCCNC(=O)c1ccc(Br)cc1,x,x,x,0.2,x,x,-2,-0.1,0,0.66
COc1ccc(CNC(=O)CCc2c[nH]c3ccccc23)cc1,5,2,-1.5,-0.5,i,0.8,-4,0.3,6,0.68
Cc1cccc(C(=O)N2CCCC(N3CCN(c4cccc(Cl)c4)CC3)C2)n1 (centres undefined),-2,3,-0.1,3.3,i,-0.3,1,-0.5,-5,0.73
Cc1ccc(S(=O)(=O)NCc2nc3ccccc3c(=O)n2N)cc1,x,x,x,4.7,x,x,2,-0.5,-13,0.72
COc1ccc(N2CCN(S(=O)(=O)c3ccc(OC)c(C(=O)N4CCOCC4)c3)CC2)cc1,8,6,-2.8,2.9,i,-1.1,0,0.8,13,0.69
Cc1ccc(SCC(=O)N(C)C2CCS(=O)(=O)C2)c(C)c1 (centres undefined),x,x,x,4.4,i,-3.2,-4,1.0,x,0.69
COc1ccc(-c2nnc3n2CCCCC3)cc1OC,-1,4,-0.5,3.2,i,1.3,-3,0.8,-2,0.63
COc1cccc2cc(C(=O)N3CCN(c4ccccn4)CC3)c(=O)oc12,x,x,x,1.5,x,x,4,0.1,-11,0.77
Cc1ccc(C)c(S(=O)(=O)NCCOc2nc(NC(C)C)nc(NC(C)C)n2)c1,-9,-13,5.5,0.3,i,-2.6,x,0.4,11,0.65
COc1cccc(-c2csc(NC(=O)Nc3ccccc3)n2)c1,-28*,-21*,-1.0*,3.9,i,-5.0,x,-0.4,3,0.66
O=c1[nH]oc2cc(Cl)ccc12,-9,3,-0.5,1.3,x,-4.1,1,0.2,x,0.68
Cc1ccc(C(=O)NCC(=O)N(C)CC(=O)Nc2c(Cl)cccc2Cl)s1,-2,3,-0.7,3.2,i,0.9,-4,0.2,3,0.66
COc1ccc(S(=O)(=O)N2CCN(CC(=O)NCC3(N4CCOCC4)CCCCC3)CC2)cc1,x,x,x,3.4,i,2.3,0,0.3,x,0.66
Cc1ccc(C(=O)OCC(=O)Nc2cccc(S(=O)(=O)N3CCOCC3)c2)o1,7,2,-1.3,2.5,i,-1.7,-2,1.3,x,0.68
O=C(NC1CCCCC1)N1CCN(C(c2ccccc2)c2ccccc2)CC1,x,x,x,0.3,x,x,20,-0.2,7,0.64
O=C(COc1ccccc1)NCC(=O)Nc1ccncc1,4,7,1.1,-0.5,i,-2.4,-2,0.1,-4,0.58
CCN(CC)CC(O)c1cccn1-c1ccc(CNC(=O)NC(C)C)cc1 (centres undefined),22,9,0.2,2.4,i,1.9,2,-0.6,-5,0.69
Cc1ccc(CNC(=O)c2ccc(N3CCC4(CC3)CC(c3cccc(Br)c3)=NO4)c(N)c2)cc1,8,0,1.1,-5.2,i,-2.4,20,0.6,20,0.71

# Full records from above. Values in the order: Ecoli rRNA inh	Ecoli rRNA inh OD600	Ecoli rRNA inh RFP	UCH37 DUB inh	FGF22 binding	MLL AF4-AF9 inh	Beta apoptosis	A1 inh	T cruzi inh	E coli growth
# Profile of O=C(COC(=O)CN1CCSC1=O)Nc1ccc(F)cc1Cl → 15	4	4.5	2.4	i	-1.7	-3	2.2	x	0.72
# Profile of Cc1ccc(C(=O)OCC(=O)Nc2cccc(S(=O)(=O)N3CCOCC3)c2)o1 → 7	2	-1.3	2.5	i	-1.7	-2	1.3	x	0.68

# Later entries:
Structure,Ecoli rRNA inh,Ecoli rRNA inh OD600,Ecoli rRNA inh RFP,UCH37 DUB inh,FGF22 binding,MLL AF4-AF9 inh,Beta apoptosis,A1 inh,T cruzi inh,E coli growth
CC(=O)c1cnc(Nc2nc(C)c3cc(C)c(C)cc3n2)nc1C,x,x,x,5.5,x,x,-2,0.6,12,0.71
CCn1c(SCC(=O)NNC(=O)c2ccc(C)cc2)nnc1C1CC1,5,2,-1.0,3.0,i,0.4,-7,0.1,-6,0.68
COc1ccccc1-c1cc(C(=O)N/N=C/c2ccoc2)c2ccccc2n1,1,3,7.4,x,i,-1.0,x,-0.2,-3,x
Cc1ccccc1OCC(O)CN1CCCCC1 (centres undefined),19,13,9.7,2.6,i,0.3,1,-0.6,-6,0.6
COc1ccc(CCNC(=O)C(C)Sc2ccccc2)cc1OC (centres undefined),x,x,x,-0.3,x,x,-3,0.2,0,0.69
O=C(NCc1cc(F)cc(C(F)(F)F)c1)C1CCC(=O)N(C2CCCC2)C1 (centres undefined),14,11,2.1,-1.5,i,-2.4,-6,0.4,-2,0.71
CCOC(=O)c1cc(C)n(CCc2ccccc2)c1C,x,x,x,2.4,x,x,7,0.1,5,0.72
